Compound activity: PubChem BioAssay, National Center for Advancing Translational Sciences (NCATS)
Cruzain Triton = qHTS Assay for Promiscuous and Specific Inhibitors of Cruzain (with detergent) | purified cruzain, Z-FR-AMC fluorescence, 0.01% Triton | Potency, µM, inactives show max response, negative = inhibition, most hits filed as inhibitors | actives 0.43% (n = 200,000) | AID 1478, 2009; active means well fitted curve in the direction sought with a large enough effect; inconclusive means small, poorly fitted or top-dose-only effect, or another doubt; inactive means no such curve, though single readings can be large; an effect the other way counts as inactive or inconclusive;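 further: plate controls were neutral wells for no effect and buffer without enzyme for full effect; nearly all actives have a fitted effect of over 40% in size; top concentration of the series not given in the record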
Target sequence (P25779 123-467 limits assumed): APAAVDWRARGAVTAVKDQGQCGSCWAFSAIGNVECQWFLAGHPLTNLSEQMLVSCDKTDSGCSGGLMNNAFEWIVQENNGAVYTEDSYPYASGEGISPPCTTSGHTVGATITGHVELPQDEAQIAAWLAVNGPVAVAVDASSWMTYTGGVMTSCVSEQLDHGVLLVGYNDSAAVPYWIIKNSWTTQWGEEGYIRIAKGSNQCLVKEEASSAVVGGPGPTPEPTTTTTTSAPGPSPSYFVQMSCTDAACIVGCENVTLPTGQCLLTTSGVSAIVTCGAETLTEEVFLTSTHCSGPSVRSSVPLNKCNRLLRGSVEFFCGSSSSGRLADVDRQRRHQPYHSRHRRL
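Sodium acetate buffer (100 mM, pH 5.5) containing 5 mM DTT and 0.01% Triton X-100 hosted 1.5 nM cruzain and test compound for 15 min at room temperature. Cleavage of 2 uM Z-FR-AMC was then tracked by fluorescence.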
MARV entry inh = qHTS for inhibitors of binding or entry into cells for Marburg Virus; Marburg virus pseudotyped entry inhibition, cell reporter; control for the full effect not named in the record; about a third of the inactives were read at about 46 µM; Potency, µM (top dose mostly 37.8 µM), inactives show top-dose activity change, negative = inhibition, usual class: inhibitors; actives 1.8% (n = 300,000); AID 540276, 2011; active = well fitted inhibition curve with a large enough effect; inconclusive = small, poorly fitted or top-dose-only effect, or effect the other way; inactive = flat fitted curve, though single readings scatter; tested in HEK293 cells; about a fifth of its hits are not listed in these tables; further: on the % scale 0 is the no-effect control and ±100 the full control effect; luciferase read-out
RE007 growth inh = qHTS Assay for Inhibitors of the HIV-1 protein Vpr. Potency, µM (series often up to 92.2 µM), inactives show at the top dose activity change, negative = less growth. actives 0.21% (n = 360,000). S. pombe RE007 Vpr strain, BacTiter-Glo ATP luminescence, 24 h; control for the full effect not named in the record; active = well fitted falling curve with a large enough effect; inconclusive = small, poorly fitted or top-dose-only effect; inactive = no such curve, though single readings can be large or run the other way;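 further: on the % scale 0 is the no-effect control and ±100 the full control effect; nearly all actives have a fitted effect of over 50% in size; the assay follows cell death caused by Vpr and the record does not say whether a fall means rescue or toxicity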
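Fission yeast RE007 carrying one integrated HIV-1 vpr copy, seeded at OD 0.01 in PMG+AL medium with 23 nL pinned compound. Grown 24 h at 30 degrees; viability read by BacTiter-Glo luminescence after 5 min.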
NS1 inh = qHTS Assay for Inhibitors of Influenza NS1 Protein Function. S. cerevisiae slowed by influenza A NS1, growth recovery by OD600. Potency, µM (doses to about 46.1 µM), without a hit: at the top dose activity, positive = more growth. actives 0.4% (n = 270,000); further: actives are rising curves; nearly all actives have a fitted effect of over 50% in size
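In this qHTS, NS1 from influenza A is expressed in budding yeast, where it slows growth. Cells are switched from glucose to 2% galactose medium (pH 6.0, -URA), treated with compound, and growth recovery is read at OD600.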
SARS PLpro yeast = qHTS of Yeast-based Assay for SARS-CoV PLP. S. cerevisiae expressing SARS-CoV PLpro, growth rescue; control for the full effect not named in the record. Potency, µM (highest dose often 32.9 µM), for the others: at the top dose activity, positive = growth rescue. actives 0.19% (n = 330,000). AID 485353, 2010; further: 0% is about no effect; nearly all actives have a fitted effect of over 55% in size; growth read by luminescence after 48 h
Cruzain noTriton = qHTS Assay for Promiscuous and Specific Inhibitors of Cruzain (without detergent); Cruzipain (Trypanosoma cruzi), P25779; purified cruzain, Z-FR-AMC fluorescence, no detergent; Potency, µM, inactives show max response, negative = inhibition, most hits filed as inhibitors; actives 2.3% (n = 200,000); active means well fitted curve in the direction sought with a large enough effect; inconclusive means small, poorly fitted or top-dose-only effect, or another doubt; inactive means no such curve, though single readings can be large; an effect the other way counts as inactive or inconclusive;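 further: plate controls were enzyme without inhibitor for no effect and buffer without enzyme for full effect; nearly all actives have a fitted effect of over 40% in size; top concentration of the series not given in the record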
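Detergent-free condition (0.00005% Triton X-100) in acetate buffer pH 5.5 with DTT. 1.5 nM enzyme and compound were pre-mixed 15 min, then 2 uM Z-FR-AMC substrate added; reaction progress from fluorescence change between first and third reads (60 s).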
StopGo reporter = High Throughput Screening for Foot and Mouth Disease Virus Antivirals. Potency, µM (doses to about 57.9 µM), inactives show at the highest dose signal change, negative = less light. human cells with a luciferase reporter of 2A StopGo recoding; control for the full effect not named in the record. actives 1.2% (n = 410,000); active = well fitted falling curve with a large enough effect; inconclusive = small, poorly fitted or top-dose-only effect; inactive = no such curve, though single readings can be large or run the other way; tested in HEK293T cells; further: on the % scale 0 is the no-effect control and ±100 the full control effect; nearly all actives have a fitted effect of over 45% in size; luciferase light after 4 h
LASV entry inh = qHTS for Inhibitors of binding or entry into cells for Lassa Virus. Lassa virus pseudotype entry inhibition, cell reporter; control for the full effect not named in the record. Potency, µM (doses to about 37.9 µM), for inactives: top-dose activity change, negative = inhibition, usual class: inhibitors. actives 1.2% (n = 300,000); active means well fitted inhibition curve with a large enough effect; inconclusive means small, poorly fitted or top-dose-only effect, or effect the other way; inactive means flat fitted curve, though single readings scatter; tested in HEK293 cells; further: on the % scale 0 is the no-effect control and ±100 the full control effect; nearly all actives have a fitted effect of over 50% in size; luciferase read-out
* marks the source's active call; other numbers are inactive results; ? = inconclusive; nt = not tested or not shown; & = joins results of further samples; [ ] = remark or other dose. Unless noted, the call rests on the fitted dose curve; in most records, active means well fitted rising curve with a large enough effect; inconclusive means small, poorly fitted or top-dose-only effect; inactive means no such curve, though single readings can be large or run the other way. Potency means the concentration at half of the fitted maximal effect. Rows were taken by chance. About 4.7% of those tested had a hit in this group.

SMILES	Cruzain Triton	MARV entry inh	RE007 growth inh	NS1 inh	SARS PLpro yeast	Cruzain noTriton	StopGo reporter	LASV entry inh
CCC1CCCCN1CCCNC(=O)C1CC(=O)N(CCc2ccccc2)C1 (stereo not drawn)	nt	11.9%[46.1 µM]	10.3%	-20.6%	1.4%	nt	-3.8%	?
COc1ccc(NS(=O)(=O)c2cc(NC(=O)COc3ccc(OC)cc3)ccc2N2CCOCC2)cc1	nt	-8.3%	0.8%	nt	2.0%	nt	88.9%[activator]	-2.3%
CC(C)(C)[C@H]1C=C(C(N)=O)O[C@@H](OCCCCO)C1	nt	nt	-14.8%	9.1%	1.3%	nt	-12.0%	nt
COc1ccc(Br)cc1C(=O)Nc1ccc(-c2nc3cc(Cl)ccc3o2)cc1	0.7%	nt	nt	nt	nt	-8.4%	1.4%	4.1%[46.1 µM]
CCOc1ccc(NC(=O)CCn2c(-c3ccc(F)cc3)cc(C(C)=O)c2C)cc1	-8.1%	nt	nt	nt	nt	-2.6%	-20.6%	?
CCOC(=O)c1c(CN2CCN(CCO)CC2)n(-c2ccccc2)c2cc(Br)c(O)cc12	nt	?	2.2%	-2.2%	-0.3%	nt	-12.4%	?
COc1cc(Cl)c(C)cc1NC(=O)c1cc2ccc3cccnc3c2[nH]1	-2.4%	nt	nt	nt	nt	?	12.3%	-8.7%[46.1 µM]
O=C1CC(c2ccc(Cl)cc2)CC(O)=C1C=NCCO (stereo not drawn)	nt	-1.5%[46.1 µM]	7.7%	5.1%	2.9%	nt	31.9%[activator]	-0.9%
COc1ccc(CNC(=O)c2c(C)oc3c2C(=O)c2ccccc2C3=O)cc1	-4.8%	6.2%	3.3%	-16.2%	-26.7%	16.6%	?	-14.0%
COc1ccc(CCC(=O)N/N=C/c2ccc3c(c2)OCO3)cc1	nt	8.4%	2.1%	nt	nt	nt	41.4%[activator]	0.1µM*
COc1cccc(CNC(=O)c2cccnc2Sc2ccc(Cl)cc2)c1	nt	10.7%[46.1 µM]	4.1%	2.9%	-4.4%	nt	8.8%	19.8%[46.1 µM]
C/C(CC(=O)NCc1ccco1)=N\NC(=O)c1ccc(Cl)cc1Cl	nt	3.4%[46.1 µM]	5.3%	1.4%	-4.1%	nt	-4.9%	nt
CCC(C)NC(=O)c1cc2c(=O)n3ccccc3nc2s1 (stereo not drawn)	nt	-1.2%	-7.7%	-2.9%	-0.3%	nt	30.0%[activator]	nt
COCCCNCCCCOc1cccc(Br)c1	-2.4%	?	1.5%	8.4%	-11.9%	-1.8%	-14.9%	0.3%
O=C(Nc1cccc(Br)c1)c1cc(-c2ccc3c(c2)OCCO3)on1	-3.6%	?	nt	nt	nt	?	0.0%	-17.5%[46.1 µM]
Cc1cc(NC(=O)c2ccc3c(c2)C(=O)N(C2CCCCC2)C3=O)no1	5.5%	-6.8%	-1.4%	-0.2%	11.4%	6.31µM*	-7.6%	-11.1%
CCc1nc(SCc2nnc(-c3ccc(C)cc3)o2)c2c(C)c(C)sc2n1	nt	-13.3%[46.1 µM]	5.9%	nt	nt	nt	-16.3%	-11.3%
COc1ccc2c(c1)C(=O)C(=O)N2CC1COc2ccccc2O1 (stereo not drawn)	nt	nt	1.2%	-81.9%	-13.6%	nt	-18.8%	nt
O=C(Nc1ccc2oc(-c3ccncc3)nc2c1)c1ccccc1Cl	-10.4%	15.5%[46.1 µM]	nt	nt	nt	1.1%	2.5%	6.5%[46.1 µM]
COc1ccc(C(=O)O/N=C(\N)Cc2ccc(Cl)cc2)cc1OC	1.0%	?	?	-177.6%	-40.5%	3.7%	?	11.2µM*
C/C(=N\Nc1ccccn1)c1ccc(OC(F)F)cc1	nt	?	3.8%	-0.4%	-0.7%	nt	23.0%	nt
Cc1ccccc1NC(=O)C1CCCN(S(=O)(=O)c2cnc[nH]2)C1 (stereo not drawn)	2.8%	nt	-5.0%	14.1µM*	0.1%	-2.3%	-15.6%	nt
O=C(COc1ccccc1)Nc1nnc(-c2ccc3c(c2)CCCC3)o1	-2.1%	nt	-3.2%	-14.6%	?	-0.7%	28.1%	nt
O=C(NCCc1ccccc1)C(=O)Nc1ccc([N+](=O)[O-])cc1	nt	nt	0.7%	2.2%	0.2%	nt	-9.3%	nt
COc1ccc(CCNCc2c(C(=O)O)c(C)n(Cc3cccc(C)c3)c2C)cc1OC	-0.7%	?	nt	nt	nt	-1.7%	-12.3%	10.3%[46.1 µM]

Already shown: an excerpt of the list.
SMILES	Cruzain Triton	MARV entry inh	RE007 growth inh	NS1 inh	SARS PLpro yeast	Cruzain noTriton	StopGo reporter	LASV entry inh
C/C(=N\Nc1ccccn1)c1ccc(OC(F)F)cc1	nt	?	3.8%	-0.4%	-0.7%	nt	23.0%	nt
Cc1ccccc1NC(=O)C1CCCN(S(=O)(=O)c2cnc[nH]2)C1 (stereo not drawn)	2.8%	nt	-5.0%	14.1µM*	0.1%	-2.3%	-15.6%	nt
O=C(COc1ccccc1)Nc1nnc(-c2ccc3c(c2)CCCC3)o1	-2.1%	nt	-3.2%	-14.6%	?	-0.7%	28.1%	nt
O=C(NCCc1ccccc1)C(=O)Nc1ccc([N+](=O)[O-])cc1	nt	nt	0.7%	2.2%	0.2%	nt	-9.3%	nt
COc1ccc(CCNCc2c(C(=O)O)c(C)n(Cc3cccc(C)c3)c2C)cc1OC	-0.7%	?	nt	nt	nt	-1.7%	-12.3%	10.3%[46.1 µM]

(cont.)
SMILES	Cruzain Triton	MARV entry inh	RE007 growth inh	NS1 inh	SARS PLpro yeast	Cruzain noTriton	StopGo reporter	LASV entry inh
Cc1cccc(N2C(=O)CC(Sc3nc(C)cc(C)n3)C2=O)c1 (stereo not drawn)	1.3%	13.4%[46.1 µM]	-6.7%	-5.7%	-10.0%	1.4%	-3.0%	-6.7%
CCOC(=O)N1CCC(Nc2c(-c3ccccc3)c(=O)c2=O)CC1	-11.4%	-2.6%	-13.6%	-7.9%	6.2%	-3.8%	-12.5%	-5.2%
COCCNC(=O)CSCc1nc(-c2ccc(SC)cc2)oc1C	-1.3%	-29.7%	26.4%	-5.4%	7.6%	17.3%	-4.3%	1.0%
CCN1C(=O)C(Cc2nc3ccccc3c(=O)n2-c2ccc(OC)cc2)c2ccccc21 (stereo not drawn)	-4.2%	-3.8%[46.1 µM]	nt	nt	nt	?	-18.7%	0.8%[46.1 µM]
C/C(N)=C(/C#N)C(=O)CSc1cc(Cl)ccc1Cl	-0.4%	2.3%	nt	-5.7%	1.2%	3.7%	-2.3%	-0.7%
COCCN1C(=O)N[C@@H](c2ccccc2)C(C(=O)OC)=C1C	2.5%&-0.9%	8.2%[14.2 µM]	-8.5%	-17.5%	4.1%	2.5%&-2.9%	-8.6%	2.5%
O=C(NNS(=O)(=O)c1ccc(F)cc1)c1cnccn1	nt	-1.5%[46.1 µM]	6.9%	nt	0.2%	nt	15.6%	0.7%
CCNc1c(C(=O)O)ccc2c1C(=O)c1ccccc1C2=O	-2.8%	-3.6%	-24.7%	5.6%	-4.0%	-6.8%	?	21.1%
O=C(O)c1ccccc1C(=O)NCCc1ccc(Cl)cc1	nt	17.9%	-3.1%	nt	2.0%	nt	6.8%	4.8%
O=C(COC(=O)c1ccccc1)Nc1ccc(Cl)cc1C(=O)c1ccccc1	2.7%	0.2%	0.0%	7.9%	-12.5%	4.7%	1.5%	-8.0%
COc1cc([N+](=O)[O-])ccc1NC(=O)C[n+]1ccccc1	-6.8%	2.0%	0.5%	-7.7%	26.9%	0.0%	-6.1%	11.7%
COc1cccc(C(=O)NCCS(=O)(=O)N2CCc3ccccc3C2)c1	nt	20.4%	-23.9%	nt	-1.3%	nt	-11.5%	-12.3%
O=C(Nc1cccc(S(=O)(=O)N2CCCC2)c1)c1ccc(Cl)nc1	nt	?	-3.7%	nt	1.6%	nt	-31.4%	?
CCOC(=O)c1ccc(NC(=O)CN2C(=O)C(CC)SC(CC)C2=O)cc1 (stereo not drawn)	-16.2%	0.6%	7.4%	-4.7%	4.5%	-5.7%	-2.9%	0.5%
CC(=O)N1CCN(C(=O)c2cc3c(s2)CCCC3)CC1	nt	25.0%	3.4%	nt	nt	nt	25.7%	20.2%
COc1ccc(/C(C)=N/N=C(\C)c2ccc(OC)cc2OC)c(OC)c1	-6.5%	2.1%	-3.5%	3.2%	6.0%	-1.1%	-4.3%	-10.3%
O=C(Nc1ccnn1C1CCN(Cc2ccccc2OC(F)F)CC1)c1cccc(F)c1	nt	nt	-4.0%	-12.1%	-1.5%	nt	-3.7%	nt
COc1ccc(CNC(=O)Cn2c(=O)oc3ccccc32)cc1OC	2.9%	3.6%	?	6.2%	-7.8%	-7.8%	-6.8%	-0.9%
CCOC(=O)c1c2ccc(OCC(=O)N/N=C/c3ccccc3C(F)(F)F)cc2n2ccccc12	2.8%	-1.9%	nt	5.4%	11.3%	0.5%	nt	nt
CC(C)CCOc1ccc(C(=O)NNC(=O)CNC(=O)c2ccccc2F)cc1	nt	-0.2%	7.7%	nt	1.0%	nt	5.1%	-33.2%
CC(OC(=O)c1cccnc1Cl)C(=O)Nc1ccc2c(c1)OCCO2 (stereo not drawn)	nt	3.1%	7.3%	nt	0.1%	nt	0.0%	-10.1%
Cc1cccn2c(=O)c3cc(C(=O)N4CC(C)CC(C)C4)sc3nc12 (stereo not drawn)	nt	-12.9%[46.1 µM]	-5.0%	4.7%	0.4%	nt	26.2%	7.8%[46.1 µM]
Nc1nccc(SCc2ccccc2)n1	nt	9.7%	-3.5%	nt	nt	nt	21.3%	6.1%
